BJeLR lethal = MLPCN primary cell-based screen for lethality selective to Ras in HRASV12 cells | BJeLR (HRASV12) viability, CellTiter-Glo ATP luminescence, 48 h; reference of the scale not given here | inhibition, % (concentration not given with the values) | 300,000 compounds, 0.17% hits | AID 1554, 2009;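 active = replicate mean above 50%; inconclusive = above 50% but judged a plate artefact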;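 note: 50 nL library stock added to about 25 µL; numbers are from one replicate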
Sa RN4220 lethal = growth inhibition of S. aureus RN4220, primary screen, OD600; 16 h; inhibition, % (test concentration not listed); 330,000 compounds, 0.33% hits; AID 1259311, 2017;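 active = z-score of -3 or lower and OD600 up to 0.18 on both plates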;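 note: plate controls were untreated cells for no effect and reference antibiotic for full effect; stock transfer was 100 nL into about 80 µL; one replicate is shown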
PrP 5UTR inh = inhibition of PrP 5' UTR reporter expression. AID 488862, 2010. cell-based PrP 5' UTR mRNA reporter, plate reader. inhibition, % (test concentration not listed). 340,000 compounds, 0.35% hits;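 active = every replicate at 50% or more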;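 note: 0 = median of the neutral control wells; tested in H4 reporter cells; numbers are from one replicate; inactives centre near -14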
Bead autofluor = counter-screen for toxin protease inhibitors: compound fluorescence; compound autofluorescence counterscreen, microsphere flow cytometry; stronger effect = higher value; fluorescence intensity (concentration not given with the values); 360,000 compounds, 3.1% hits;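 active = at least 3 SD above the mean of all compounds, about 16000 in these data; inconclusive = too few beads counted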;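 note: 100 nL of 1 mM stock went into each well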
Mtb hypoxia rep = PubChem AID 1159583. fluorescence inhibition, % (test concentration not listed). M. tuberculosis hypoxia-regulated fluorescent reporter, fluorescence. 300,000 compounds, 0.1% hits;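 active = 35 to 45% if threefold the growth effect, above 45% if 1.5-fold the growth effect; inactive = the rest, general growth blockers included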;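 note: wells of about 50 µL received 100 nL stock; 0% = vehicle wells and 100% = reference inhibitor wells; whole bacteria with a GFP reporter of the hypoxia response; strong numbers were not always called active; many hits fall short of the cut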
ugtP null kill = growth inhibition of ugtP-null S. aureus, primary screen, RN4220 ugtP deletion, OD600; 16 h; some inactives read as strong as hits; 330,000 compounds, 0.54% hits; growth inhibition, % (concentration not given with the values); AID 1259309, 2017;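 active = z-score under -3 and OD600 up to 0.15 on both plates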;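 note: plate controls were untreated wells for no effect and antibiotic for full effect; wells of about 80 µL received 100 nL stock; the first replicate is given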
Mtb hypoxia rep growth = further read-out of Mtb hypoxia rep, marked with its call; growth inhibition, %; measured here: M. tuberculosis growth (absorbance);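 0% = vehicle and 100% = reference antibiotic; read after six days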
The depositor's hits bear a star; u = inconclusive; x = no result given; & = joins results of further samples.

| compound | PrP 5UTR inh | Mtb hypoxia rep growth | Sa RN4220 lethal | Bead autofluor | BJeLR lethal | Mtb hypoxia rep | ugtP null kill |
| --- | --- | --- | --- | --- | --- | --- | --- |
| CCc1cccc(N(C(=O)c2csnn2)C(C(=O)NC2CCCC2)c2cccnc2)c1 (stereo unspecified) | -3 | 8 | 0.0 | 3987 | 3 | 2 | 3 |
| Cc1n[nH]c(=S)n1/N=C/c1ccc(OCc2ccc(Cl)cc2)cc1 | -50 | x | x | 5066 | 0 | x | x |
| COc1ccc(-c2noc(=O)[nH]2)cc1 | -9 | 8 | 6.2 | 2624 | -18 | 16 | 5 |
| CNC(=O)CSc1nc2cccnc2n1C1CCCCC1 | 5 | 8 | 3.6 | 3758 | 3 | 5 | 6 |
| Nc1ccc(S(=O)(=O)N2CCCC2)cc1 | -19 | x | -2.2 | 5101 | -2 | x | -4 |
| O=C(O)CSCc1cnn(-c2ccccc2)c1-n1cccc1 | x | -4 | 0.6 | 10818 | -3 | -8 | 3 |
| CCCc1cc(=O)oc2cc(C)cc(OCC(=O)NC3CC3)c12 | -10 | -2 | 0.3 | 4683 | 0 | 0 | 5 |
| O=C(c1ccc2c(c1)[nH]c(=S)n1c3ccccc3nc21)N1CCN(c2ncccn2)CC1 | -4 | 6 | -1.6 | 4444 | 1 | 0 | -21 |
| O=C1C(Cc2ccccc2)Nc2ncnc(N3CCOCC3)c2N1Cc1ccc(Br)cc1 (stereo unspecified) | -17 | 3 | 1.8 | 3849&5601 | -7 | -7 | -5 |
| OCCC1CC(O)C(O)[C@@]2(OCc3ccccc32)O1 (stereo partly specified) | x | 9&8&4&12 | 7.1&4.3&3.8&4.2 | x | x | 7&-3&-3&9 | 0&3&3&-3 |
| COc1cc(C2CC=C(C(=O)O)C(c3cccc(Cl)c3)N2S(=O)(=O)c2ccc(C)cc2)cc(OC)c1OC (stereo unspecified) | x | 3 | 7.3 | x | x | 7 | 15 |
| Cc1cc(C(=O)COC(=O)c2n[nH]c3ccccc23)c(C)n1CC1CCCO1 (stereo unspecified) | -10 | x | -4.4 | 3161 | 6 | x | -4 |
| CNS(=O)(=O)c1ccc(NC(=O)c2csc(C)c2)cc1 | -7 | -9 | -3.0 | 5909 | 7 | -2 | 1 |
| CN(C)c1ccc(/C=C2/C(=O)NC(=O)N(CCc3ccc(F)cc3)C2=O)cc1 | -13 | x | x | 2223 | -1 | x | x |
| COc1ccc(CN2CCN(Cc3cc4ccccc4o3)CC2CCO)c(F)c1 (stereo unspecified) | -11 | 2 | -0.2 | 3280 | 4 | -4 | 3 |
| O=S(=O)(c1ccccc1)c1nc(Cc2ccccc2)oc1N1CCOCC1 | 5 | -9 | -0.6 | 4980 | 0 | 4 | 1 |
| CC1CC(C)CN(C(=O)COC(=O)c2cc([N+](=O)[O-])ccc2N2CCOCC2)C1 (stereo unspecified) | -26 | 2 | 6.5 | u | -4 | 3 | 5 |
| O=C1c2ccccc2NC(c2ccccc2)N1Cc1ccccc1 (stereo unspecified) | -15 | 9 | 1.3 | 3583 | 5 | -1 | 12 |
| CCOC(=O)C1=CN(CC2CCCO2)C=C(C(=O)OCC)C1c1ccccc1C(F)(F)F (stereo unspecified) | -21 | 8 | 17 | 3665 | -3 | -9 | 5 |
| COC(=O)C1=C(c2ccc(C(C)=O)cc2)CC2CCC1N2C(=O)NCc1ccc(F)cc1 (stereo unspecified) | x | 7 | 1.4 | x | x | 3 | 6 |
| Cn1c(=O)c2c(C(=O)O)cc(-c3ccccc3)nc2n(Cc2ccccc2)c1=O | -15 | -3 | 6.9 | 3901 | -12 | -12 | -4 |
| CCOc1ccc(N2C(=O)CC(S/C(N)=N/N=C/c3cccs3)C2=O)cc1 (stereo unspecified) | 0 | x | x | 9214 | -14 | x | x |
| COc1ccc(C(C(=O)NC2CCCCC2)N(C(=O)Cc2c[nH]c3ccccc23)c2ccc(NC(C)=O)cc2)cc1OC (stereo unspecified) | -5 | -3 | 1.7 | u | 2 | -3 | 2 |
| COc1ccccc1NC(=O)COC(=O)c1ccccc1OCC(=O)Nc1ccc(SC(F)F)cc1 | -12 | 5 | 6.2 | 11501 | 9 | 4 | 0 |
| COc1ccc(C(=O)c2nc3c(n2O)CCCCC3)cc1 | -20 | x | 3.7 | 2344 | -3 | x | 11 |
| CC12CCC(C(=O)N(CC(O)CN3CCCCCC3)C1=O)C2(C)C (stereo unspecified) | -20 | 3 | 3.9 | 2464 | -9 | 11 | 9 |
| CC(=O)c1cnc(Oc2cc(Cl)ccc2Cl)nc1C | -2 | 6 | 9.1 | 3642 | 3 | -1 | 10 |
| CCOC(=O)c1ccc(S(=O)(=O)N2CCN(C(=O)c3cccc(S(=O)(=O)N4CC(C)OC(C)C4)c3)CC2)cc1 (stereo unspecified) | -38 | -2 | 4.4 | 4355 | x | 4 | 2 |
| Cc1oc2c(c(C)cc3oc(=O)c(CC(=O)NCCC(=O)O)c(C)c32)c1C | -18 | -4 | 1.3 | 3211 | 0 | 0 | 3 |
| Cc1ccc(NC(=O)C2CCN(S(=O)(=O)c3ccc4c(c3)NC(=O)CO4)CC2)cc1 | -7 | -5 | 1.7 | 4373 | -2 | 4 | 6 |
| O=C(CN1C(=O)c2ccccc2S1(=O)=O)NCCSCc1ccccc1Cl | 4 | -9 | 3.2 | 4486 | -3 | -4 | 8 |
| Cc1ccc(C2C(=O)c3ccccc3C2=O)cc1 | -8 | 9 | -1.8 | 3226 | 15 | 16 | 0 |
| COc1ccc2c(c1)CCN=C2Cc1ccc(OC)c(OC)c1 | -16 | 2 | 0.3 | 1999 | 5 | -5 | -3 |
| COc1ccccc1/C=C/C=Nn1c(COc2ccccc2)n[nH]c1=S | x | 2 | 12 | x | x | 4 | -5 |
| CC(C)NC(=O)COc1nncc2ccccc12 | -8 | 10 | -2.3 | 5188 | -6 | 5 | 6 |
| CCc1ccc(C(=O)Nc2nc3ccccc3[nH]2)cc1 | 63* | x | x | 5200 | 18 | x | x |
| N#Cc1c(-c2ccccc2)c(C#N)c2nc3ccccc3n2c1N | 1 | 6 | 0.8 | 2195 | 18 | -10 | -6 |
| CC(C)(C)NC(=O)CSc1nc(Cc2ccccc2)nc2ccccc12 | -15 | 10 | 4.1 | 3973 | -5 | 22 | 9 |
| Cc1cc(C)c(NS(=O)(=O)c2ccc3c(c2)n(C)c(=O)n3C)c(C)c1 | 2 | -6 | 5.9 | 4040 | -1 | 7 | 1 |
| O=C(O)CCCCCn1c(SCc2cc(=O)n3cc(Cl)ccc3n2)nc2ccsc2c1=O | -21 | 2 | 5.0 | 2528 | 10 | 3 | 67 |

Reprinted at random: 4 compounds from above
| compound | PrP 5UTR inh | Mtb hypoxia rep growth | Sa RN4220 lethal | Bead autofluor | BJeLR lethal | Mtb hypoxia rep | ugtP null kill |
| --- | --- | --- | --- | --- | --- | --- | --- |
| COc1ccc2c(c1)CCN=C2Cc1ccc(OC)c(OC)c1 | -16 | 2 | 0.3 | 1999 | 5 | -5 | -3 |
| CCc1ccc(C(=O)Nc2nc3ccccc3[nH]2)cc1 | 63* | x | x | 5200 | 18 | x | x |
| CC(C)NC(=O)COc1nncc2ccccc12 | -8 | 10 | -2.3 | 5188 | -6 | 5 | 6 |
| N#Cc1c(-c2ccccc2)c(C#N)c2nc3ccccc3n2c1N | 1 | 6 | 0.8 | 2195 | 18 | -10 | -6 |

Next compounds follow:
| compound | PrP 5UTR inh | Mtb hypoxia rep growth | Sa RN4220 lethal | Bead autofluor | BJeLR lethal | Mtb hypoxia rep | ugtP null kill |
| --- | --- | --- | --- | --- | --- | --- | --- |
| CC(NC(=O)Nc1ccc(Cl)cc1)c1ccccc1 (stereo unspecified) | -18 | -4 | -0.1 | 4251 | 8 | 5 | -5 |
| O=C(COC(=O)[C@@H]1CCCN1S(=O)(=O)c1ccc(Cl)cc1)NCC(F)(F)F | 1 | -3 | 1.1 | 2396 | -14 | 0 | 5 |
| O=C(CN1C(=O)CCS(=O)(=O)c2ccccc21)Nc1cccc(Cl)c1 | -33 | 0 | -14 | 3317 | 11 | -3 | -13 |
| Cc1oc(-c2ccccc2Cl)nc1CS(=O)CC(=O)NCc1ccc2c(c1)OCO2 (stereo unspecified) | 17 | -6 | 5.2 | 4000 | -3 | 0 | 12 |
| O=C(CNc1ccc(Br)cc1)c1ccccc1 | -25 | 3 | 5.6 | 8793 | 0 | -7 | -6 |
| COC(=O)c1c(NC(=S)NC(=O)c2ccco2)sc2c1CCCC2 | -11 | 12 | -1.5 | 6894 | -3 | 6 | 6 |
| Cc1cc(C)nc(/N=C(\N)Nc2cc([N+](=O)[O-])ccc2C)n1 | -10 | x | x | 4069 | -3 | x | x |
| Cc1cc(C)nc(NCCCc2ccccc2)n1 | -22 | -6 | 1.6 | 10467 | -1 | -6 | 0 |
| COc1ccccc1-n1c(C)c(C(C)=O)c2cc(O)ccc21 | -15 | 5 | 3.5 | x | -4 | 13 | 0 |
| O=C(O)/C=C(\Oc1ccccc1)C1(O)CCCCC1 | -14 | 5 | 4.0 | 4836 | 3 | 4 | 7 |
| CCOc1ccc(NC(=O)C2CC(=O)N(c3cc(C)cc(C)c3)C2)cc1 (stereo unspecified) | -13 | 4 | 3.0 | 3140 | -3 | -3 | -1 |
| NC1CCN(c2cccc(Cl)n2)CC1 | x | 3 | 3.7 | x | -2 | -5 | 3 |
| CC(=NNC(=S)NC1CCCCC1)c1ccc(OC(F)F)cc1OC(F)F | x | 1 | -7.0 | x | x | 2 | 8 |
| Cc1cccc([C@@H]2[C@@H]3C(=O)N(Cc4ccccc4)C(=O)[C@@H]3[C@]3(C)C(=O)N(c4cccc(F)c4)C(=O)N23)c1 | -13 | x | x | 4157 | -3 | x | x |
| COc1ccc(C2=Nc3cccc4cccc(c34)N2)cc1 | -38 | 3 | -0.5 | 4261 | 1 | 0 | -16 |
| Cc1[nH]nc2c1C(c1ccc(N(C)C)cc1)C1=C(CC(C)(C)CC1=O)N2 (stereo unspecified) | -9 | 6 | 0.5 | 4159 | -3 | -3 | 4 |
| CC(C)OCCCNCC(O)c1ccccc1 (stereo unspecified) | -17 | 0 | -0.3 | 7645 | -6 | 6 | -3 |
| O=C(c1nc2ccccn2c1CNCCCn1ncc2ccccc21)N1CCOCC1 | 9 | 2 | 3.5 | 2309 | -7 | 12 | 9 |
| COc1ccc2c(-c3ccc(S(N)(=O)=O)cc3)c(-c3ccc(S(C)(=O)=O)cc3)sc2c1 | -14 | 3 | -15 | 3838 | x | -2 | -6 |
| CC1CCCCN1CC(=O)Nc1sccc1C#N (stereo unspecified) | -19 | 1 | -5.7 | 10573 | 2 | 0 | -8 |
| Cn1c(=O)c2c(nc(N3CCCCCC3)n2CCSc2nc3ccccc3o2)n(C)c1=O | -28 | 16 | -7.2 | 6490 | -4 | 6 | -15 |
| Cc1ccc(NC(=O)c2csc(-c3ccccc3)c2C)cc1 | 52 | 4 | 8.7 | 23926* | x | 11 | 1 |
| O=C1NC2(CCCCC2)N=C1c1ccc(Br)cc1 | -5 | 1 | -7.7 | 4559 | 4 | -3 | -3 |
| CC(=O)CC1(O)C(=O)Nc2ccccc21 (stereo unspecified) | 1 | -7 | 4.3 | 5534&5251 | -1 | 0 | 2 |
| C[C@H](NC(=O)c1ccc(Cl)cc1)C(=O)OCn1nnc2ccccc2c1=O | -8 | 7 | 11 | 6133 | x | 2 | 6 |

6 compounds from above, ordered by count of non-hydrogen atoms, ascending:
| compound | PrP 5UTR inh | Mtb hypoxia rep growth | Sa RN4220 lethal | Bead autofluor | BJeLR lethal | Mtb hypoxia rep | ugtP null kill |
| --- | --- | --- | --- | --- | --- | --- | --- |
| CC(=O)CC1(O)C(=O)Nc2ccccc21 (stereo unspecified) | 1 | -7 | 4.3 | 5534&5251 | -1 | 0 | 2 |
| CC(C)OCCCNCC(O)c1ccccc1 (stereo unspecified) | -17 | 0 | -0.3 | 7645 | -6 | 6 | -3 |
| CC1CCCCN1CC(=O)Nc1sccc1C#N (stereo unspecified) | -19 | 1 | -5.7 | 10573 | 2 | 0 | -8 |
| Cc1ccc(NC(=O)c2csc(-c3ccccc3)c2C)cc1 | 52 | 4 | 8.7 | 23926* | x | 11 | 1 |
| C[C@H](NC(=O)c1ccc(Cl)cc1)C(=O)OCn1nnc2ccccc2c1=O | -8 | 7 | 11 | 6133 | x | 2 | 6 |
| Cn1c(=O)c2c(nc(N3CCCCCC3)n2CCSc2nc3ccccc3o2)n(C)c1=O | -28 | 16 | -7.2 | 6490 | -4 | 6 | -15 |

High-throughput results as filed in PubChem BioAssay.
